From PubChem BioAssay
AF4-AF9 inh – inhibitors of AF4 peptide binding to AF9, primary screen, biochemical, AlphaScreen, biotin-AF4 peptide, FLAG-AF9, single point; Protein AF-9 (Homo sapiens), P42568; inhibition, % at 10 µM; 350,000 tested, 0.47% active;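 active = every replicate reaching a set inhibition limit, whatever the replicate mean, cut at about 25% in these data; inconclusive = mean inhibition reaches that limit but some replicates miss it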;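 note: 0% = plate neutral control median and 100% = total signal loss; the record names both 10 and 1 µM as test concentration; the first replicate is given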
Target sequence (P42568 whole entry, looked up): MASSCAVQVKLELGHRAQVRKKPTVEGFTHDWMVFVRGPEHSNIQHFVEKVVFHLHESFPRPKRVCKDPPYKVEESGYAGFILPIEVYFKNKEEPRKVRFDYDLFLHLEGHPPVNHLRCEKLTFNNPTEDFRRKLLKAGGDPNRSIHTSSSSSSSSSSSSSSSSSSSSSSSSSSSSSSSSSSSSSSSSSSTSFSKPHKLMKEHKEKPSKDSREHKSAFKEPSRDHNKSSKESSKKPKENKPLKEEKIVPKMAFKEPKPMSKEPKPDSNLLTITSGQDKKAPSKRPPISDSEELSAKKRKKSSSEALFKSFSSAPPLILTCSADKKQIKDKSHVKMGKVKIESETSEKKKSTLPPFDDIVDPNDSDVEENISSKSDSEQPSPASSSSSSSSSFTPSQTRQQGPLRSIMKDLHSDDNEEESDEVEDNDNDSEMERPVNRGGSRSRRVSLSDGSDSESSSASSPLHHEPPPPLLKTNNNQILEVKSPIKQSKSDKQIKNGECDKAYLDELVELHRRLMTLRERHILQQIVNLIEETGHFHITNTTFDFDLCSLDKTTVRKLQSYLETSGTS
Active calls of the source: *; ? = inconclusive; & = joins results of further samples. These rows are one share of the data; count on the stated rates, not on these rows.

AF4-AF9 inh	canonical_smiles
-1.4	C[C@@H]1CN([C@H](C)CO)C(=O)c2cc(NC(=O)Nc3cccc4ccccc34)ccc2O[C@@H](C)CCCCO[C@H]1CN(C)S(=O)(=O)c1ccc(F)cc1
0.7	Cc1ccc(S(=O)(=O)Nc2ccc3c(c2)C(=O)N([C@H](C)CO)C[C@@H](C)[C@H](CN(C)S(=O)(=O)c2cccs2)OCCCC[C@H](C)O3)cc1
-1.7	CCc1noc2cc(-c3ccccc3)n(C)c(=O)c12
-0.3&-1.4	CCC(=O)Nc1ccc2c(c1)OC[C@@H](C)N(C(=O)c1ccccn1)C[C@@H](C)[C@@H](OC)CN(C)C2=O
1.8	COc1ccccc1CN1[C@H](CO)[C@@H]2c3ccccc3N(C(=O)C3CCCCC3)C[C@@H]21
-3.4	C[C@H]1CN([C@@H](C)CO)C(=O)c2cccc(NS(=O)(=O)c3ccc(F)cc3)c2O[C@@H]1CN(C)C(=O)Nc1ccc(C(F)(F)F)cc1
-2.4	CCCCC[C@@H](C)N1C[C@H](COCc2ccccc2)Oc2cc(N3CCC[C@H]3COC)ccc2S1(=O)=O
0.6	C[C@@H]1CCCCO[C@@H](CN(C)C(=O)Cc2ccccc2)[C@@H](C)CN([C@@H](C)CO)C(=O)c2cc(NS(=O)(=O)c3cn(C)cn3)ccc2O1
-1.2	O=C(C[C@H]1CC[C@@H]2[C@H](COC[C@H](O)CN2C(=O)C2CC2)O1)NCc1ccccc1Cl
-4.1	O=C(C[C@H]1CC[C@H](NC(=O)Nc2cccc(F)c2)[C@H](CO)O1)NCC1CC1
-1.3	CO[C@@H]1CN(C)C(=O)c2ccc(NC(=O)c3ccccn3)cc2OC[C@@H](C)N(CCC(F)(F)F)C[C@H]1C
2.1	O=C1NC[C@H](CCCCN2CCN(CCc3ccccc3)C(=O)C2=O)N(CCC2CCCCC2)C1=O
1.4	COc1cccc(NC(=O)C2(C)CCN2Cc2ccc(OC)c3ccccc23)c1 (stereo not given)
?	CN(C)c1ccc2c(c1)[C@@H]1C[C@H](CC(=O)NCc3ccc(Oc4ccccc4)cc3)O[C@@H](CO)[C@@H]1O2
-1.3	Cc1cc2nc(C(C)(C)C)c(Cc3ccsc3)n2c(C)c1Br
7.6	COc1ccc2c3c(n(C)c2c1)[C@H](CO)N(C(=O)C1CCC1)CC31CN(C(=O)CN(C)C)C1
2.7	C[C@H]1CN([C@@H](C)CO)C(=O)c2cc(C#CC(C)(C)O)cnc2O[C@@H]1CN(C)C(=O)C1CCOCC1
-7.2	C[C@@H]1CN([C@@H](C)CO)C(=O)c2cc(C3=CCCCC3)cnc2O[C@@H]1CN(C)S(=O)(=O)c1cn(C)cn1
-1.3	C[C@@H]1CN([C@@H](C)CO)C(=O)c2cc(-c3ccccc3F)cnc2O[C@H]1CN(C)C(=O)C1CCC1
2.1	O=C(Cc1ccccn1)N[C@@H]1CC[C@H](CCn2cc(-c3ccccc3)nn2)O[C@@H]1CO
-2.4	CC1(C(=O)NS(=O)(=O)c2ccc(Cl)cc2)CCN1C(=O)Cc1cccc2ccccc12 (stereo not given)
-2.9	CC(C)(C)NC(=O)C1c2ccccc2OCC(=O)N1Cc1ccc2c(c1)OCO2 (stereo not given)
-1.6	Cc1noc(C)c1S(=O)(=O)Nc1ccc2c(c1)C(=O)N([C@@H](C)CO)C[C@@H](C)[C@H](CN(C)S(C)(=O)=O)O2
-18	COc1ccc(S(=O)(=O)Nc2ccc3c(c2)C(=O)N([C@H](C)CO)C[C@@H](C)[C@H](CN(C)CC2CC2)O3)cc1
-1.0	Cc1ccc(S(=O)(=O)N(C)C[C@H]2Oc3ncc(-c4ccccc4)cc3C(=O)N([C@H](C)CO)C[C@@H]2C)cc1
-1.7	O=C(Nc1ccccc1)N1CCCCN2[C@H](CO)[C@@H](c3ccc(-c4ccccc4F)cc3)[C@@H]2C1
-0.5	CO[C@@H](CN(C)C(=O)C1CCOCC1)[C@@H](C)CN(C(=O)Nc1ccc(F)cc1)[C@@H](C)CO
-4.7	CCS(=O)(=O)N1[C@H](CO)[C@@H](c2ccccc2)C12CN(C(=O)C1CC1)C2
-1.6	Cc1noc(C)c1S(=O)(=O)Nc1ccc2c(c1)C(=O)N([C@@H](C)CO)C[C@H](C)[C@@H](CN(C)C(=O)NC(C)C)OCCCC[C@@H](C)O2
-2.0	CC1=C(C(=O)N2CCOCC2)CC(CC(=O)NCc2cccs2)C(=O)N1Cc1ccccc1 (stereo not given)

Quoted from the entries so far for reference:
AF4-AF9 inh	canonical_smiles
-1.4	C[C@@H]1CN([C@H](C)CO)C(=O)c2cc(NC(=O)Nc3cccc4ccccc34)ccc2O[C@@H](C)CCCCO[C@H]1CN(C)S(=O)(=O)c1ccc(F)cc1
0.7	Cc1ccc(S(=O)(=O)Nc2ccc3c(c2)C(=O)N([C@H](C)CO)C[C@@H](C)[C@H](CN(C)S(=O)(=O)c2cccs2)OCCCC[C@H](C)O3)cc1
-1.7	CCc1noc2cc(-c3ccccc3)n(C)c(=O)c12
-0.3&-1.4	CCC(=O)Nc1ccc2c(c1)OC[C@@H](C)N(C(=O)c1ccccn1)C[C@@H](C)[C@@H](OC)CN(C)C2=O
1.8	COc1ccccc1CN1[C@H](CO)[C@@H]2c3ccccc3N(C(=O)C3CCCCC3)C[C@@H]21
-3.4	C[C@H]1CN([C@@H](C)CO)C(=O)c2cccc(NS(=O)(=O)c3ccc(F)cc3)c2O[C@@H]1CN(C)C(=O)Nc1ccc(C(F)(F)F)cc1
-2.4	CCCCC[C@@H](C)N1C[C@H](COCc2ccccc2)Oc2cc(N3CCC[C@H]3COC)ccc2S1(=O)=O
0.6	C[C@@H]1CCCCO[C@@H](CN(C)C(=O)Cc2ccccc2)[C@@H](C)CN([C@@H](C)CO)C(=O)c2cc(NS(=O)(=O)c3cn(C)cn3)ccc2O1
-1.2	O=C(C[C@H]1CC[C@@H]2[C@H](COC[C@H](O)CN2C(=O)C2CC2)O1)NCc1ccccc1Cl
-4.1	O=C(C[C@H]1CC[C@H](NC(=O)Nc2cccc(F)c2)[C@H](CO)O1)NCC1CC1
-1.3	CO[C@@H]1CN(C)C(=O)c2ccc(NC(=O)c3ccccn3)cc2OC[C@@H](C)N(CCC(F)(F)F)C[C@H]1C

(next part)
AF4-AF9 inh	canonical_smiles
0.3	COc1ccc(NC(=O)N2CCCCN3[C@H](C2)[C@H](c2ccc(-c4ccccc4C)cc2)[C@@H]3CO)cc1
1.4	COc1ccc(NC(=O)N2C[C@H](O)COC[C@@H]3O[C@H](CC(=O)NCc4ccncn4)CC[C@H]32)cc1
-2.8	O=C(N[C@H]1CC[C@@H](CCn2cc(-c3ccccn3)nn2)O[C@@H]1CO)c1ccc(F)cc1
-8.8	C[C@@H]1CN([C@H](C)CO)C(=O)c2cccc(NC(=O)Nc3ccc(F)cc3)c2O[C@@H]1CN(C)Cc1ccc(C(=O)Nc2ccccc2N)cc1
3.4	Cc1noc(C)c1S(=O)(=O)N(C)C[C@@H]1Oc2ccc(NS(=O)(=O)c3ccccc3)cc2CC(=O)N([C@@H](C)CO)C[C@@H]1C
-1.7	O=C(C[C@H]1CC[C@@H]2[C@H](COC[C@H](O)CN2Cc2cccc(F)c2)O1)NCc1ccncc1
-2.6	C[C@H]1CN([C@@H](C)CO)C(=O)CCCn2cc(nn2)CO[C@@H]1CN(C)Cc1ccccc1C(=O)O
3.1	C[C@H](CO)N1C[C@H](C)[C@H](CN(C)S(=O)(=O)c2cn(C)cn2)Oc2ccc(NC(=O)Nc3cccc4ccccc34)cc2CC1=O
1.8	O=C(c1cccnc1)N1C[C@H]2[C@@H](c3ccccc31)[C@H](CO)N2C(=O)Nc1cccc(F)c1
-1.4	CC1(C(=O)Nc2cnc3ccccc3c2)CCN1C(=O)CC(c1ccccc1)c1ccccc1 (stereo not given)
-4.9	C[C@@H]1CN([C@H](C)CO)C(=O)c2cc(NC(=O)Nc3cccc4ccccc34)ccc2O[C@@H]1CN(C)S(=O)(=O)c1cccs1
2.1	C[C@@H]1CN([C@H](C)CO)C(=O)c2cc(N(C)C)ccc2O[C@@H]1CN(C)Cc1ccc(C(=O)O)cc1
-0.3	CO[C@H](CN(C)C(=O)c1ccc2c(c1)OCO2)[C@@H](C)CN([C@@H](C)CO)S(=O)(=O)c1ccc(C)cc1
0.4	CC(C)NC(=O)N[C@H]1CC[C@H](CCn2cc(-c3ccccc3)nn2)O[C@H]1CO
2.7	C[C@@H]1CN([C@@H](C)CO)C(=O)Cc2cc(NC(=O)CCN3CCOCC3)ccc2O[C@H]1CN(C)C(=O)Nc1ccc(F)cc1
-5.3	C[C@H](O)C#Cc1ccc([C@@H]2[C@H]3CN(C(=O)c4ccncc4)CCCCN3[C@H]2CO)cc1
6.1	COc1ccc(CN2CCC3CC2c2cc(-c4cccc(C)c4)ccc23)cc1 (stereo not given)
-0.4	COCC(=O)Nc1ccc2c(c1)OC[C@H](C)N(C(=O)Cc1ccccn1)C[C@H](C)[C@H](OC)CN(C)C2=O
0.3	CN(C)C(=O)c1ccc(-c2ccc([C@@H]3[C@@H](C#N)N(C(=O)C4CCC4)[C@H]3CO)cc2)cc1
27*	C[C@@H]1CN([C@H](C)CO)C(=O)c2cc(C#CCN(C)C)cnc2O[C@H]1CN(C)Cc1ccc(-c2ccccc2)cc1
-1.3	O=C(c1cnccn1)N1CC(=O)N2[C@@H](CO)[C@@H](c3ccc(-c4cccc(F)c4)cc3)[C@@H]2C1
-1.1	CN1C(=O)c2cc(NC(=O)C3CCOCC3)ccc2OC[C@@H]2O[C@H](CC(=O)NCc3ccc4c(c3)OCO4)CC[C@H]21
-3.3	O=C(c1ccoc1)N1CCN(c2cc(-c3cccnc3)nc3cc(-c4cccc(Cl)c4)nn23)CC1
1.3	O=C(Nc1ccc(F)cc1)N[C@@H]1CC[C@H](CC(=O)N2CCOCC2)O[C@H]1CO
-5.4	C[C@@H]1CN([C@@H](C)CO)C(=O)c2cc(NC(=O)C3CCCCC3)ccc2O[C@@H](C)CCCCO[C@H]1CN(C)C(=O)CCCN(C)C
-9.5	C=C1C(=O)C23C(O)C1CCC2C12COC3(O)C(O)C1C(C)(C)CCC2O (stereo not given)
-10	C[C@@H]1CN([C@@H](C)CO)C(=O)c2cc(-c3ccccc3F)cnc2O[C@@H]1CN(C)C
-3.8	COCCN1C[C@@H](CO)O[C@@H](n2cnc3c(NC(C)C)ncnc32)C1
-1.1	CCCCNC(=O)c1nc(-c2ccncc2)oc1-c1ccccc1
-0.2	CCCNC(=O)N[C@@H]1CC[C@@H](CCn2cc(C3CC3)nn2)O[C@@H]1CO
0.6	C[C@@H]1CN([C@@H](C)CO)C(=O)c2cc(C#CC3CCCC3)cnc2O[C@@H]1CN(C)S(=O)(=O)c1cccc(F)c1
-3.0	O=C1NC[C@@H](CCCCN2C[C@H](Cc3ccc(O)cc3)N(CCC3CCCCC3)C(=O)C2=O)N(CC2CCCCC2)C1=O
-1.4&-0.3&-0.2	C/C=C/c1cnc2c(c1)C(=O)N([C@H](C)CO)C[C@@H](C)[C@@H](CN(C)C(=O)NC1CCCC1)O2
-2.5	Cc1noc(C)c1NC(=O)N(C)C[C@H]1Oc2ccc(NC(=O)NC(C)C)cc2C(=O)N([C@@H](C)CO)C[C@@H]1C
-0.2	COc1ccc2c3c(n(C)c2c1)[C@H](CO)N(CC1CCCC1)CC31CCN(C(=O)CN(C)C)CC1
0.5	COc1cc(NC(=O)COC(=O)C2CC(O)CN2S(=O)(=O)c2ccc(Cl)cc2)c(C)cc1[N+](=O)[O-] (stereo not given)
-3.3	COc1cc(OC)cc(C(=O)NCC(=O)NCCN2C(=O)S/C(=C\c3ccc4c(c3)OCO4)C2=O)c1
-0.9	O=S(=O)(N[C@H]1CC[C@@H](CCn2cc(C3(O)CCCC3)nn2)O[C@@H]1CO)c1ccccc1
-2.2	CCN1C[C@@H]2[C@@H]3C(=O)N(C)C(=O)[C@@H]3[C@](C)(C1=O)N2C(=O)c1ccc(Br)cc1
9.7	C=CC1c2ccccc2/C=C(C(=O)OC)\C(C(=O)OC)=C/N1Cc1ccc(OC)cc1 (stereo not given)
-2.2	C[C@H]1CN([C@@H](C)CO)C(=O)c2cc(NC(=O)Cc3cn(C)c4ccccc34)ccc2O[C@@H]1CN(C)S(=O)(=O)c1ccc(F)cc1
8.8	COc1ccc(CN(C)C[C@H]2OCCCC[C@H](C)Oc3ccc(NC(=O)Nc4ccc(C(F)(F)F)cc4)cc3C(=O)N([C@@H](C)CO)C[C@@H]2C)cc1
-4.1	CCNC(=O)C[C@@H]1C=C[C@@H](NC(=O)C2CCC2)[C@H](CO)O1
-2.0	COc1ccc(S(=O)(=O)N(C)C[C@H]2OCCCC[C@H](C)Oc3ccc(NC(=O)NC(C)C)cc3C(=O)N([C@H](C)CO)C[C@@H]2C)cc1
0.0	CCCN1C[C@@H](C)[C@H](OC)CN(C)C(=O)c2ccc(NC(=O)c3ccccc3F)cc2OC[C@@H]1C
4.9	COc1ccc2c3c([nH]c2c1)[C@@H](CO)N(C(=O)Nc1ccc(F)cc1)CC31CN(C(=O)Cc2ccccc2)C1
1.4	CCCC(=O)Nc1ccc2c(c1)C(=O)N(C)C[C@H](OC)[C@@H](C)CN(Cc1ccccc1F)[C@@H](C)CO2
-0.8	C[C@@H]1CN([C@@H](C)CO)C(=O)c2cc(NC(=O)C3CCCCC3)ccc2O[C@@H](C)CCCCO[C@H]1CN(C)S(=O)(=O)c1ccc(F)cc1
2.3	COc1ccc(NC(=O)Nc2cccc3c2O[C@H](CN(C)Cc2ccc(Oc4ccccc4)cc2)[C@H](C)CN([C@H](C)CO)C3=O)cc1
-0.8	C[C@@H]1CCCCO[C@H](CN(C)C(=O)Nc2ccc(C(F)(F)F)cc2)[C@@H](C)CN([C@@H](C)CO)C(=O)c2cc(NC(=O)c3ccncc3)ccc2O1
-4.0	C[C@H](CO)N1C[C@H](C)[C@H](CN(C)C(=O)Nc2ccccc2)OCCCC[C@H](C)Oc2ccc(NC(=O)NC3CCCCC3)cc2C1=O
0.0	CC(=O)N1[C@@H]2Cn3c(ccc(-c4cncnc4)c3=O)[C@H]1[C@@H](C(=O)NC1Cc3ccccc3C1)[C@@H]2CO
-10	CC(C)NC(=O)N1CCCCN2[C@@H](CO)[C@H](c3ccc(C#C[C@H](C)O)cc3)[C@@H]2C1
-1.8	CCN(CC)c1ccc(C=C2SC(=S)NC2=O)cc1
